Screening data deposited in PubChem BioAssay by ICCB-Longwood Screening Facility, Harvard Medical School.
AID504770 – E. coli YBA685 growth inhibition, screen for V. cholerae RctB inhibitors. z-score (test concentration not listed). AID 504770. E. coli YBA685 rctB-dependent plasmid, OD600 growth, 3 h; hits give low values. 0.27% of 130,000 active;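 active = z-score under -2 on both plates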;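 note: wells of about 30 µL received 100 nL stock; score is relative to mean and SD of the test wells; the first replicate is given; strong numbers were not always called active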
Ba CapD inh – CapD enzyme inhibition | AID 492967 | purified CapD enzyme, fluorescence intensity read-out; hits give low values; some hits fall short of the stated cut | 0.23% of 140,000 active | z-score (concentration not given with the values);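 active = z-score under -4 in either of two replicates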;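 note: stock transfer was 100 nL into about 40 µL; score is relative to mean and spread of the plate; one replicate is shown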
Active calls of the source: *; i = inactive; . = not tested or not shown. Some of the compounds tested; rates above refer to the full screens.

Under each structure: AID504770	Ba CapD inh
(1) Cc1ccc(C(=O)N/C(=C\c2ccc(Cl)cc2)C(=O)NCc2ccco2)cc1
  .	0.4
(2) Cc1cccc(-c2n[nH]c(=S)n2C2CCCCC2)c1
  -0.8	0.095
(3) NNS(=O)(=O)c1ccc(Cl)cc1
  0.15	8.9
(4) COc1ccc(OC)c(C(=O)CC2(O)C(=O)Nc3ccccc32)c1 (centres undefined)
  1	-0.26
(5) N#CC(C(=O)CCN1C(=O)c2ccccc2C1=O)c1nc2ccccc2[nH]1 (centres undefined)
  0.15	.
(6) NC(=O)c1sc(-c2ccsc2)cc1NC(=O)c1cccs1
  1	29
(7) O=c1[nH]c2ccccc2n(-c2ccc(Cl)cc2)c1=O
  1.8	1.8
(8) CC(C)OC(=O)c1ccc(NC(=O)CSc2nc3ncccc3[nH]2)cc1
  -1.9	-1
(9) COC(=O)c1ccc(CSc2nnc3n(N)cnn23)cc1
  0.35	0.92
(10) Cn1c2c(c(=O)n(C)c1=O)C(c1cc([N+](=O)[O-])ccc1O)C1C(=O)c3ccccc3C1=N2 (centres undefined)
  .	-0.36
(11) Cc1cccc(Oc2cc(Oc3cccc(C)c3)c3noc4c3c2C(=O)c2ccccc2-4)c1
  .	-0.58
(12) Cc1ccc2cc3c(NCc4ccc(F)cc4Cl)n[nH]c3nc2c1
  .	24
(13) Cc1cccc(-c2noc(CNC(C)C)n2)c1
  -0.95	0.27
(14) CCOC(=O)C(C(=O)Cc1ccccc1)c1ccccc1 (centres undefined)
  1.4	0.08
(15) CC(C)(C)c1cc(CCC(=O)N2CCC2)cc(C(C)(C)C)c1O
  -0.6	.
(16) Cc1ccc(CN2CCSc3ccc(C(=O)Nc4ccc(F)cc4)cc32)cc1
  0.5	-0.41
(17) C/C(=N\N(C)C)c1cc(Cl)cc(Cl)c1O
  -0.25	-1.8
(18) O=C(NCCN1CCOCC1)c1cccc(Cl)c1
  -0.15	0.76
(19) CN(C)c1ccc(/C=C(\NC(=O)c2ccccc2)C(=O)N/N=C/c2ccc([N+](=O)[O-])s2)cc1
  .	-0.15
(20) O=C(N/N=C/c1cccc(OCc2ccccc2)c1)c1ccc2ccccc2c1
  .	-0.12
(21) O/N=C/c1c(O)c(Br)cc2oc3c(c12)CCCC3
  -0.95	-0.46
(22) O=C1Nc2ccccc2N2C1CC(=O)N(c1ccccc1)C2c1ccc(F)cc1 (centres undefined)
  -0.05	.
(23) CCC(=O)NCCCc1nc2ccccc2n1C
  0.7	-0.37
(24) O=C1CCCN=C(Nc2cccc(F)c2)S1
  0.15	-0.34
(25) COc1cc(OC)nc(CSCCNC(=O)NS(=O)(=O)c2ccc(C)cc2)n1
  .	-0.61
(26) S=C(NC1CCCC1)N1CCN(C/C=C/c2ccccc2)CC1
  -0.85	0.12
(27) Cc1ccccc1C(C#N)C(CC#N)c1ccccc1 (centres undefined)
  1.6	-0.17
(28) Cc1ccc(N/N=C(/C#N)C(=N)N2CCCCCC2)cc1
  0.5	-0.9
(29) Nc1nonc1NC(=O)COC1CN2CCC1CC2 (centres undefined)
  -0.7	.
(30) O=S(=O)(c1ccc2c(c1)OCCO2)N1CCN(Cc2ccccc2)CC1
  1.6	i

Later entries:
Under each structure: AID504770	Ba CapD inh
(31) FC(F)(F)c1cc(-c2nccs2)nc2cc(-c3cccs3)nn12
  -0.35	-0.28
(32) COC(=O)C1(O)c2ccccc2-c2ccccc21
  -0.6	.
(33) CC(=O)Nc1ccc2c(c1)n(C)c(=O)n2C
  0.5	.
(34) COc1cc(OC)c(C2C(C#N)=C(N)Oc3n[nH]c(-c4ccc(C)cc4)c32)cc1OC (centres undefined)
  .	-0.66
(35) COc1ccc(NC2(C(N)=O)CCCCC2)cc1
  1.1	0.3
(36) c1ccc(CCNc2ccc3nncn3n2)cc1
  -0.55	3.7
(37) O=C(Cn1nnc(-c2ccccc2Cl)n1)N1CCN(S(=O)(=O)c2ccc(Cl)cc2)CC1
  -1.6	.
(38) CCc1ccccc1NC(=O)C(CC)N1C(=O)C2(OCCCO2)c2ccccc21 (centres undefined)
  -0.5	-1.8
(39) CCC(C)C1N=C2c3ccccc3N=C(SCc3cc(=O)n4ccccc4n3)N2C1=O (centres undefined)
  -0.25	0.08
(40) Cc1ccc(/C=C/C(=O)NC2CCCc3ccccc32)o1 (centres undefined)
  1.4	.
(41) NC(=O)N/N=C/c1coc2ccccc2c1=O
  0.15	0.34
(42) COc1ccc(Cl)c2sc(N3CCN(C(=O)CS(=O)(=O)c4ccc(F)cc4)CC3)nc12
  -0.6	.
(43) COc1ccc(OC)c(NC(=O)CN2C(=O)CC(C)(C)Sc3ccccc32)c1
  -0.7	-0.53
(44) Cc1c(C(=O)c2ccc(OC(F)F)cc2)oc2ccc(F)cc12
  0.3	.
(45) O=c1c(Br)coc2ccccc12
  .	-0.21
(46) CC(C)(C)OC(=O)N(CCOC(=O)N1CCC(O)(c2cccc(C(F)(F)F)c2)CC1)Cc1cccc2ccccc12
  .	-0.59
(47) O=C(O)CSc1nc2c(n1-c1ccccc1)CCCC2
  -0.25	.
(48) NC(=O)c1cccc2cccc(I)c12
  0.3	0.55
(49) COC(=O)c1sc(-c2cccs2)cc1NS(=O)(=O)c1ccc(C)cc1
  0.7	91
(50) Clc1nc(Nc2cccc3ccccc23)nc(N2CCOCC2)n1
  .	-0.03
(51) O=C1C2C3C=CC(C3)C2C(=O)N1c1ccccc1 (centres undefined)
  0.05	55
(52) CCOC(=O)c1csc(-c2ccc(-c3csnn3)cc2)n1
  -0.4	-0.18
(53) Cc1cc(=O)n2[nH]c(CC(=O)O)nc2n1
  0.15	-0.37
(54) CN(C)C(=O)c1cc2c(=O)n3ccccc3nc2n1C
  1.7	58
(55) O=C(O)CCN1C(=O)/C(=C/c2ccc(-c3ccccc3Cl)o2)SC1=S
  -0.3	0.88
(56) CN1CCC(NC(=S)NC2CC2)CC1
  1.2	-0.69
(57) CCOC(=O)c1c(NC(=O)CSc2nnc(C)s2)sc2c1CCC(C)C2 (centres undefined)
  .	0.23
(58) N#CC1=C(SCC(N)=O)NC2=C(C(=O)CCC2)C1c1ccc2c(c1)OCO2 (centres undefined)
  0.05	1.5
(59) FC(F)(F)c1cc(Oc2ccccc2)nc(-c2ccccn2)n1
  2	-0.18
(60) O=C(Cn1ncn2cccc2c1=O)N1CCCCC1
  -2.5	-1.8

As entered above.
O/N=C/c1c(O)c(Br)cc2oc3c(c12)CCCC3 @ Ba CapD inh = -0.46
COC(=O)c1sc(-c2cccs2)cc1NS(=O)(=O)c1ccc(C)cc1 @ AID504770 = 0.7
COc1cc(OC)nc(CSCCNC(=O)NS(=O)(=O)c2ccc(C)cc2)n1 @ Ba CapD inh = -0.61

Next entries.
Under each structure: AID504770	Ba CapD inh
(61) N#Cc1ccc(CSc2nnc(-c3cccc(S(=O)(=O)N4CCCCC4)c3)n2-c2ccccc2)cc1
  0.45	.
(62) CC(C)S(=O)(=O)/C(C#N)=C/c1ccccc1OC(F)(F)F
  0.95	0.28
(63) COc1cc(/C=C2/SC(=S)N(NC(C)=O)C2=O)ccc1O
  -0.2	-4.8*
(64) CN1/C(=C\C=C(/C#N)c2nc3ccccc3[nH]2)C(C)(C)c2ccccc21
  -1.9	-1.3
(65) CC1(C)CC(=O)C=C(SCC(=O)Nc2ccccc2Cl)S1
  0.1	-0.47
(66) Fc1ccc2nc3c(nc2c1)c1ccccc1n3Cc1cc(C(F)(F)F)cc(C(F)(F)F)c1
  .	0.08
(67) CCOC(=O)c1c(NC(=S)N2CCc3ccccc32)sc2c1CCN(C(=O)OCC)C2
  -0.35	0.11
(68) O=P1(NCc2ccco2)C=C(c2ccccc2)OC(c2ccccc2)=C1
  1.1	.
(69) O=C(O)CCc1ccc(S(=O)(=O)Nc2cc(C(F)(F)F)ccc2N2CCCC2)cc1
  1.4	.
(70) CC1=C(C#N)C(=O)N(CCc2ccccc2)C(=O)/C1=C/c1ccc(-c2ccc3c(c2)COC3=O)o1
  0.05	3.2
(71) CCN1C(=O)/C(=C2/SC(c3ccccc3)=C3N=CC(C)=CN32)SC1=S
  0.5	.
(72) CC(C)N1CC2(c3ccccc31)N1CC3(C)CN2CC(C)(C1)C3=O (centres undefined)
  0.2	-0.34
(73) CCOC(=O)c1ccc(N=c2ssc3c2-c2ccccc2NC3(C)C)cc1
  .	-0.66
(74) COc1cccc(NC(=S)N(C2CCCCC2)C(C)c2ccco2)c1 (centres undefined)
  0.85	0.73
(75) COc1ccc(CCNC(=O)CN(c2ccc(OC)c(OC)c2)S(=O)(=O)c2ccc(C)cc2)cc1OC
  .	-0.64
(76) OCc1nc(-c2cc(C(F)(F)F)cc(C(F)(F)F)c2)cs1
  -0.2	-0.14
(77) COc1cc(CN(C(=S)NCC(=O)N2CCCC2)C2CCCC2)cc(OC)c1OC
  -0.6	4
(78) Cc1ccc(Nc2nnc(-c3ccc(C(=O)NCCO)cc3)c3ccccc23)c(C)c1
  .	-1.1
(79) O=C(O)c1c2c(nc3ccccc13)CCN(Cc1ccccc1)C2
  .	-0.47
(80) COc1cccc(C(=O)Nc2ccc(-c3csc(C)n3)cc2)c1
  -0.7	-0.46
(81) O=C(Nc1ccc(N2CCOCC2)cc1)c1cc2cc(Cl)ccc2[nH]1
  0.5	-0.1
(82) CNC(=O)CN(C#N)c1nc(N(C)C)nc(N(C)C)n1
  -0.5	.
(83) CC(C)NC(=O)c1cc2c(s1)CS(=O)(=O)C2
  0.4	0.29
(84) Cc1nc(N2CC(O)CC2C(N)=O)c2c(-c3ccccc3)csc2n1 (centres undefined)
  -1.1	.
(85) c1cc(CNC2CCCC2)ccn1
  -0.35	.
(86) FC(F)(F)c1ccc(-c2ncc(-c3ccnc4ccccc34)c(-c3ccccn3)n2)cn1
  .	-0.45
(87) CC(=O)Nc1nonc1-c1nc2ccccc2n1Cc1ccccn1
  -0.05	12
(88) O=C(O)C1COc2ccccc2O1 (centres undefined)
  -0.2	-0.04
(89) O=C1CSC(=S)N1c1cccc(O)c1
  -3.1*	-0.29
(90) O=C(Nc1ccccc1)c1cc2c(=O)n3ccccc3nc2s1
  1.4	0.095

One compound at a time, as listed above.
Record of N#Cc1ccc(CSc2nnc(-c3cccc(S(=O)(=O)N4CCCCC4)c3)n2-c2ccccc2)cc1 → AID504770 = 0.45; Ba CapD inh = .
Record of COc1cccc(NC(=S)N(C2CCCCC2)C(C)c2ccco2)c1 (centres undefined) → AID504770 = 0.85; Ba CapD inh = 0.73
Record of CCOC(=O)c1c(NC(=S)N2CCc3ccccc32)sc2c1CCN(C(=O)OCC)C2 → AID504770 = -0.35; Ba CapD inh = 0.11

Additional structures:
Under each structure: AID504770	Ba CapD inh
(91) CCOC(=O)CSc1nc(-c2ccccc2)c(C#N)c(=O)[nH]1
  1.5	-0.47
(92) Cn1nc(C(F)(F)F)c(/C=C/C(=O)c2ccc(Cl)c(Cl)c2)c1Cl
  .	0.2
(93) CC(=O)N1CCN(Cc2nc3ccc(NC(=O)Cn4nc(C)c5ccccc5c4=O)cc3n2C)CC1
  0.6	0.15
(94) N#CCSc1nc2ccccc2c(=O)n1CC1CCCC1
  -0.55	1.1
(95) CCc1ccc(NC(=O)CSc2nncn2C)cc1
  -0.4	0.21
(96) CCOC(=O)c1ccc(-n2c(=S)sc3c(=O)[nH]c(C)nc32)cc1
  -0.45	-0.84
(97) CCOC(=O)C1CCN(S(=O)(=O)c2sc(Cl)cc2Br)CC1
  .	0.22
(98) CCCOC(=O)c1c(N)sc2c1CCCC2
  -0.25	-0.1
(99) CCC(C#N)C12CC3CC(CC(C3)C1)C2 (centres undefined)
  -0.4	0.045
(100) COc1ccc(-c2noc(NC3CCCc4ccccc43)n2)cc1 (centres undefined)
  -0.95	0.22
(101) COc1ccccc1N1CC(C(=O)OCn2nnc3ccccc3c2=O)CC1=O (centres undefined)
  0.1	.
(102) CCOC(=O)c1ccc(NC(=S)NCCn2cc(Br)cn2)cc1
  0.2	-0.29
(103) CC(O)(CS(=O)(=O)C1CCCCC1)C(=O)Nc1ccc(C(F)(F)F)cc1 (centres undefined)
  .	0.075
(104) Cc1ccc2[nH]c(-c3ccccc3)c(CN3CCC(C)CC3)c(=O)c2c1
  -0.35	1.4
(105) Cc1nn(CCOc2c(Cl)cccc2Cl)c(=O)c(C#N)c1C
  0.2	.
(106) O=c1c(Br)c(N2CCNCC2)cnn1-c1ccccc1
  -0.45	-0.07
(107) O=C(c1ccc(CN2C(=O)CCn3nc(-c4ccccc4)cc32)cc1)N1CCN(c2ccccn2)CC1
  0.55	0.2
(108) CC(C)CNC(=O)c1ccc(COCC(F)(F)C(F)F)o1
  -0.05	0.51
(109) COc1ccc(-c2nc(C#N)c(N3CCCC3)o2)cc1
  -0.75	17
(110) O=C1c2cc(S(=O)(=O)N(CCO)CCO)ccc2-c2ccc(S(=O)(=O)N(CCO)CCO)cc21
  .	0.12
(111) O=C(NC1CCCCCC1)[C@@H]1CCCN1S(=O)(=O)c1ccc2c(c1)OCCO2
  -0.35	.
(112) CC(C)(C)C1CCc2c(sc3c2C(=O)NC(c2ccc(O)cc2O)N3)C1 (centres undefined)
  .	-0.71
(113) COc1ccccc1CNc1n[nH]c(=S)s1
  0	-0.83
(114) O=C1c2ccccc2S(=O)(=O)N1Cc1ccc2nsnc2c1
  0.45	-0.52
(115) COCCOC(=O)C1=C(C)NC2=C(C(=O)CC(c3cccs3)C2)C1c1cc(OC)c(O)c([N+](=O)[O-])c1 (centres undefined)
  .	-1.4
(116) O=C(CCn1c(SCc2cccc(F)c2)nc2cc3c(cc2c1=O)OCO3)NCc1ccc2c(c1)OCO2
  0.1	-0.08
(117) Cc1nc(N(c2ccccc2)c2ccccc2)sc1C
  1.8	.
(118) Cc1cc(C)nc(Sc2ccc(O)cc2)n1
  .	-0.86
